Screening results (PubChem)
SARS PLpro yeast: inhibitors of SARS-CoV papain-like protease in yeast; Potency, µM (titrated, usually from 32.9 µM), for inactives: top-dose activity, positive = growth rescue; 330,000 tested, 0.19% active; S. cerevisiae expressing SARS-CoV PLpro, growth rescue; control for the full effect not named in the record; AID 485353; active means well fitted rising curve with a large enough effect; inconclusive means small, poorly fitted or top-dose-only effect; inactive means no such curve, though single readings can be large or run the other way; further: 0% is about no effect; nearly all actives have a fitted effect of over 55% in size; growth read by luminescence after 48 h
Cruzain inh Det: cruzain (T. cruzi) inhibition with detergent. P25779. purified cruzain, Z-FR-AMC fluorescence, 0.01% Triton. Potency, µM, for inactives: max response, negative = inhibition, actives largely listed as inhibitors. 200,000 tested, 0.43% active;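 further: plate controls were neutral wells for no effect and buffer without enzyme for full effect; nearly all actives have a fitted effect of over 40% in size; top concentration of the series not given in the record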
Target sequence (P25779 123-467 limits assumed): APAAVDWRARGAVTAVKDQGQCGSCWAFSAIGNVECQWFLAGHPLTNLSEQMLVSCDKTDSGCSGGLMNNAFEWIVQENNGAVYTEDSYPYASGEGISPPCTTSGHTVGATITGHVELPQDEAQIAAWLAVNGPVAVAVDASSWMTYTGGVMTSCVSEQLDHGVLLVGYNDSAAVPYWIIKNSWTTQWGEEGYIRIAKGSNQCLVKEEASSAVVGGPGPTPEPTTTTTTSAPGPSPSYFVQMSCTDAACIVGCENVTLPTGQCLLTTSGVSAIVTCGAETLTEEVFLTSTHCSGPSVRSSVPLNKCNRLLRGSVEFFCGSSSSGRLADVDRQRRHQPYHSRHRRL
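In this qHTS format, compounds are incubated with 1.5 nM cruzain for 15 min at room temperature before 2 uM Z-FR-AMC is added. Release of AMC is followed at 360/450 nm, and progress is taken as the 60 s fluorescence difference.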
StopGo reporter: FMDV 2A StopGo reporter, luciferase signal; human cells with a luciferase reporter of 2A StopGo recoding; control for the full effect not named in the record; 410,000 tested, 1.2% active; Potency, µM (series often up to 57.9 µM), without a hit: at the highest dose signal change, negative = less light; AID 1159524; active = well fitted falling curve with a large enough effect; inconclusive = small, poorly fitted or top-dose-only effect; inactive = no such curve, though single readings can be large or run the other way; tested in HEK293T cells; further: on the % scale 0 is the no-effect control and ±100 the full control effect; nearly all actives have a fitted effect of over 45% in size; luciferase light after 4 h
Lassa entry inh: inhibitors of Lassa virus binding or cell entry | Lassa virus pseudotype entry inhibition, cell reporter; control for the full effect not named in the record | 300,000 tested, 1.2% active | Potency, µM (doses to about 37.9 µM), inactives show at the top dose activity change, negative = inhibition, hits mostly inhibitors | AID 540256; active means well fitted inhibition curve with a large enough effect; inconclusive means small, poorly fitted or top-dose-only effect, or effect the other way; inactive means flat fitted curve, though single readings scatter; tested in HEK293 cells; further: on the % scale 0 is the no-effect control and ±100 the full control effect; nearly all actives have a fitted effect of over 50% in size; luciferase read-out
MARV entry inh: inhibitors of Marburg virus binding or cell entry; Potency, µM (titrated, usually from 37.8 µM), without a hit: at the top dose activity change, negative = inhibition, usual class: inhibitors; AID 540276; Marburg virus pseudotyped entry inhibition, cell reporter; control for the full effect not named in the record; about a third of the inactives were read at about 46 µM; 300,000 tested, 1.8% active; active = well fitted inhibition curve with a large enough effect; inconclusive = small, poorly fitted or top-dose-only effect, or effect the other way; inactive = flat fitted curve, though single readings scatter; tested in HEK293 cells; about a fifth of its hits are not listed in these tables; further: on the % scale 0 is the no-effect control and ±100 the full control effect; luciferase read-out
RE007 growth inh: less growth of the S. pombe RE007 Vpr strain; S. pombe RE007 Vpr strain, BacTiter-Glo ATP luminescence, 24 h; control for the full effect not named in the record; Potency, µM (top dose mostly 92.2 µM), without a hit: at the highest dose activity change, negative = less growth; 360,000 tested, 0.21% active; AID 651644; active = well fitted falling curve with a large enough effect; inconclusive = small, poorly fitted or top-dose-only effect; inactive = no such curve, though single readings can be large or run the other way;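 further: on the % scale 0 is the no-effect control and ±100 the full control effect; nearly all actives have a fitted effect of over 50% in size; the assay follows cell death caused by Vpr and the record does not say whether a fall means rescue or toxicity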
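Fission yeast strain RE007, carrying one chromosomally integrated HIV-1 vpr copy, was seeded at OD 0.01 in PMG+AL medium with 23 nL pinned compound. After 24 h at 30 °C and 99% humidity, viability was read by BacTiter-Glo luminescence.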
Cruzain inh noDet: cruzain (T. cruzi) inhibition without detergent; P25779; purified cruzain, Z-FR-AMC fluorescence, no detergent; Potency, µM, without a hit: max response, negative = inhibition, most hits filed as inhibitors; 200,000 tested, 2.3% active; AID 1476;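 further: plate controls were enzyme without inhibitor for no effect and buffer without enzyme for full effect; nearly all actives have a fitted effect of over 40% in size; top concentration of the series not given in the record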
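Purified cruzain at 1.5 nM, pre-incubated 15 min with compound at room temperature in 100 mM sodium acetate pH 5.5, 5 mM DTT, 0.00005% Triton X-100. Reaction started with 2 uM Z-FR-AMC; AMC fluorescence increase over 60 s gives rate.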
NS1 function inh: blocks influenza NS1 protein function. S. cerevisiae slowed by influenza A NS1, growth recovery by OD600. Potency, µM (top dose mostly 46.1 µM), for inactives: top-dose activity, positive = more growth. 270,000 tested, 0.4% active. AID 2326; active means well fitted rising curve with a large enough effect; inconclusive means small, poorly fitted or top-dose-only effect; inactive means no such curve, though single readings can be large or run the other way; further: nearly all actives have a fitted effect of over 50% in size
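OD600 was taken as the measure of yeast growth restored by compound in an NS1-expressing S. cerevisiae strain. Cells had been washed out of glucose medium and diluted 1:100 into galactose -URA medium, pH 6.0.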
* marks the source's active call; other numbers are inactive results; ? = inconclusive; / = no result given; & = joins results of further samples; [ ] = another dose, or the depositor's remark. Unless noted, the call rests on the fitted dose curve; in most records, active means well fitted curve in the direction sought with a large enough effect; inconclusive means small, poorly fitted or top-dose-only effect, or another doubt; inactive means no such curve, though single readings can be large; an effect the other way counts as inactive or inconclusive. Potency means the concentration at half of the fitted maximal effect.

SMILES	SARS PLpro yeast	Cruzain inh Det	StopGo reporter	Lassa entry inh	MARV entry inh	RE007 growth inh	Cruzain inh noDet	NS1 function inh
CCCCCc1nc2ccccc2c(=O)n1-c1ccc(C)cc1	/	-1.7%	0%	?	-1%[46.1 µM]	/	6%	/
Cn1ncc2c(Nc3cc(C(F)(F)F)ccc3Cl)ncnc21	/	-0.1%	-25%	?	/	/	13%	/
CCCCOc1ccc(C(=O)OCC(=O)Nc2cc(C)c(C)cc2[N+](=O)[O-])cc1	9%	-5.4%	6%	6%	-7%	9%	?	14%
Cc1ccc(C)c(S(=O)(=O)NCc2ccc(C(=O)N3CCCCC3C)cc2)c1 (stereo not given)	1%	-1.1%	-14%	?	2%	-1%	9%	-3%
O=C1c2ccccc2S(=O)(=O)N1CCOc1ccc(F)cc1	2%	-2.7%	11%	8%	4%	-5%	-7%	4%
Cc1oc(-c2ccc(F)cc2)cc1-c1nn2c(-c3ccoc3C)nnc2s1	1%	-6.0%	-21%	-19%	-3%[46.1 µM]	-5%	15%	6%
CN(C)Cc1c(C(=O)N/N=C/c2ccncc2)nnn1-c1nonc1N	1%	/	-9%	-2%	18%	-3%	/	2%
Cc1ccc(C)c(OCC(=O)OCC(=O)Nc2c(C)nn(-c3ccccc3)c2C)c1	-3%	/	-2%	-3%	27%	-12%	/	/
CC(=O)N/C(=C/c1ccc2c(c1)OCO2)C(=O)NC(Cc1ccccc1)C(=O)O (stereo not given)	/	/	-7%	-1%	1%	0%	/	/
Cc1ccc(-c2ccc(S(=O)(=O)N3CCCC3)cc2)cc1	-1%	/	1%	-2%[46.1 µM]	25%[46.1 µM]	14%	/	/
Cc1cccc(NC(=S)N/N=C/C(C)c2ccccc2)c1C (stereo not given)	-1%	/	-7%	?	?	7%	/	2%
COc1cc(CNC(=O)c2ccc3nc(CCc4ccccc4)oc3c2)cc(OC)c1OC	/	-6.3%	-25%	-27%[46.1 µM]	/	/	?	/
Cc1nn(-c2ccccc2)c(Cl)c1C(=O)OCC(=O)N(C)c1c(N)n(Cc2ccccc2)c(=O)[nH]c1=O	-4%	/	-10%	-10%	-11%	10%	/	/
CC(C)(C)C(=O)Nc1nnc(SCC(=O)NC2CC2)s1	2%	/	-13%	4%	4%[46.1 µM]	4%	/	23%
O=C(Nc1cc(=O)[nH]c2ncnn12)c1ccccc1F	0%	/	-9%	/	/	-11%	/	2%
COc1cc2c(cc1OC)C(c1cc([N+](=O)[O-])ccc1O)NCC2 (stereo not given)	1%	/	-18%	/	/	9%	/	5%
O=C(NCCc1c[nH]c2ccccc12)c1ccc2nc[nH]c2c1	/	/	26%	?	-9%[46.1 µM]	-10%	/	/
CCCCN(C(=O)c1sc2nc3n(c(=O)c2c1C)CCC3)c1c(N)n(CC(C)C)c(=O)[nH]c1=O	-4%	/	-6%	12%	-14%	3%	/	/
COc1ccc(CCNC(=O)c2cc3c(=O)n4cccc(C)c4nc3n2C)cc1	/	-16%	-2%	6%[46.1 µM]	/	/	-21%	/
CCCCc1c(O)nc(SCC(=O)N2CCOCC2)n(-c2ccccc2C)c1=O	4%	0.2%	-6%	8%	21%[46.1 µM]	-27%	7%	?
COc1ccc(N2CCN(C(=O)CCn3nc(C)c(S(=O)(=O)N4CCCC4)c3C)CC2)cc1	/	-1.0%	?	-16%[46.1 µM]	/	/	?	/
O=C(COC(=O)c1ncc(Cl)c(Cl)c1Cl)c1ccc(Cl)s1	-1%	-3.7%	5%	-6%	-11%	-4%	-1%	20%
COc1cccc(CNC(=O)c2ccc3c(c2)sc2nc(-c4cccc(OC)c4)cn23)c1	/	-2.3%	5%	-1%[46.1 µM]	/	/	-5%	/
Cc1ccc(C(=O)c2cn(CC(=O)NCc3ccccc3)c3nc(C)ccc3c2=O)cc1	/	-0.5%	-19%	21%[46.1 µM]	/	/	-2%	/
CC(=O)Nc1ccc(S(=O)(=O)NCC2CCC(C(=O)N3CC(C)CC(C)C3)CC2)cc1 (stereo not given)	1%	/	-9%	/	-8%	-4%	/	-14%
CCN1C(=O)C2(/C(=C(\O)c3ccc4c(c3)OCCO4)C(=O)C(=O)N2CCCOC)c2ccccc21 (stereo not given)	-1%	0.3%	-3%	2%	2%&2%	4%	-7%	-3%
Cc1nc(SCC(=O)OCc2ccccc2)c(C#N)c(-c2ccccc2)c1C(=O)Nc1ccccc1	5%	1.0%	-20%	?	?	-8%	?	-1%
OC(CCN1CC2CCC(CC2)C1)(Cc1ccccc1)c1ccco1 (stereo not given)	/	/	?	-21%	-13%	3%	/	/
Cc1cc(C)c(NC(=O)Cn2c(=O)oc3cc(S(=O)(=O)N4CCCCCC4)ccc32)c(C)c1	/	-5.7%	-19%	-5%[46.1 µM]	-17%[46.1 µM]	/	11%	/
COc1ccc(C2C(C#N)=C(N)SC(N)=C2C#N)cc1OC	7%	-5.4%	-14%	5%	-11%&-11%	-4%	-22%	?
CN(C(=O)C1CCCO1)c1nnc(-c2ccccn2)s1 (stereo not given)	-3%	0.7%	46%[activator]	?	2%[46.1 µM]	-11%	5%	-10%
Cc1ccc(CN2C(=O)S/C(=C\c3ccccc3OCC(=O)O)C2=O)cc1	20%	/	-11%	1%	-17%	11%	/	4%
CCC(NC(=O)c1cc(COc2ccc(Cl)cc2OC)on1)c1ccncc1 (stereo not given)	1%	/	7%	?	?	-5%	/	-23%
CCCCSc1cc(C)nc(N)n1	2%	/	18%	4%[46.1 µM]	?	4%	/	-6%
COc1ccc(CN2CC(C(=O)NCCCN3CCN(C)CC3)CC2=O)cc1 (stereo not given)	-1%	3.6%	0%	-19%	2%	-2%	3%	?
CCCn1c(=N)n(CC(=O)c2cccs2)c2ccccc21	4%	-0.6%	-15%	12%	?	-17%	-8%	0%
CCN(CC)C(=O)c1ccc(N(Cc2ccccc2)S(C)(=O)=O)cc1	-8%	/	-4%	/	/	-2%	/	2%
O=c1oc2ccccc2c2c1C(O)CO2 (stereo not given)	0%	/	-26%	/	/	19%	/	-2%
COc1ccc(-c2nc3ccccc3c(=O)n2NC(=O)Cc2ccccc2)cc1	15%	-0.8%	-2%	1%	7%	0%	-4%	0%
CCOC(=O)c1cc2c(=O)n3ccccc3nc2n(CCCOC)c1=NC(=O)C(C)(C)C	2%	?	-16%	-6%	-3%&-3%	-6%	?	-5%
Cc1ccccc1CN1C(=O)c2ccccc2S(=O)c2ccc(C(=O)NC3CCC(C)CC3)cc21 (stereo not given)	/	0.6%	-1%	?	/	/	8%	/
CC(C)CN(Cc1cc(=O)oc2cc(-c3ccccc3)c(O)cc12)CC(C)C	-2%	/	-13%	/	/	-2%	/	22%
CN1CCN(C(=O)CCN2C(=O)c3ccccc3S2(=O)=O)CC1	/	/	-5%	3%	12%	-8%	/	/
CC1CCC(NC(=O)C2(C)Cc3ccccc3C(=O)N2Cc2ccccc2Cl)CC1 (stereo not given)	/	-0.2%	-15%	/	-8%[46.1 µM]	/	5%	/
CCOCCn1cnc2sc(C(=O)NCCCN3CCOCC3)c(C)c2c1=O	-1%	/	-1%	23%[46.1 µM]	17%[46.1 µM]	1%	/	5%
CCOc1ccc(/C=N/n2nnnc2N)cc1O	0%	/	-4%	2%	?	1%	/	8%
CCOC(=O)C1=C(O)/C(=C/c2cccc(OC)c2O)N=C1C	1%	/	13%	5%[46.1 µM]	?	-7%	/	4%
O=C(Nc1ccc(C2CCCCC2)cc1)C1CCCN(c2ncccn2)C1 (stereo not given)	13%	5.0%	-8%	-25%[14.3 µM]	-3%	12%	6%	-3%
CCOc1ccc(C(=O)NCCCN2CCOCC2)cc1OCC	0%	/	9%	16%	2%[46.1 µM]	29%	/	-1%
Cc1ccc2sc(N3CCN(C(=O)CCS(=O)(=O)c4ccc(Cl)cc4)CC3)nc2c1C	/	0.3%	-8%	4%[46.1 µM]	/	/	4%	/
CCCCc1ccc(NC(=O)N2CCN(c3cc(C)nc4ccccc34)CC2)c(C)c1	-1%	/	35µM*	/	/	5%	/	4%
O=C(Nc1ccc2oc(-c3ccccc3Cl)nc2c1)c1ncn[nH]1	-8%	-2.3%	/	-15%	?	-7%	2%	6%
COc1ccc(-c2nnn(Cc3ccccc3)n2)cc1	2%	/	107%[activator]	?	7%	-8%	/	-24%
CC(=O)Nc1ccc(NC(=O)CSc2nc3ccccc3o2)cc1	13%	-0.2%	-11%	4%	21%	11%	4%	-17%
COc1cc(C2CC(=O)N(CC(=O)Nc3ccccc3F)c3ccccc3S2)cc(OC)c1OC (stereo not given)	/	-5.9%	?	/	?	/	?	/
O=C(c1ccccc1)c1cccn1CC(=O)N1CCN(c2ccc(F)cc2)CC1	1%	-1.8%	-12%	?	-25%	18%	6%	-4%
CCOC(=O)CSc1nc(C)c(C(C)=O)cc1C(N)=O	2%	/	-6%	3%	-7%[46.1 µM]	1%	/	8%
Cc1ccc(NC(=O)CSc2nc3ccccc3nc2Cc2ccccc2)c(Cl)c1	/	1.6%	-17%	1%[46.1 µM]	/	/	-21%	/
O=C(NNC(=O)c1ccccc1O)c1ccc(S(=O)(=O)Nc2ccccc2F)cc1	2%	/	16%	4%	1%[46.1 µM]	-5%	/	/
Cc1cc(NC(=O)Nc2ccc(F)cc2)no1	-9%	-5.5%	19%	21%	16%	-7%	-8%	-8%
(next part)
SMILES	SARS PLpro yeast	Cruzain inh Det	StopGo reporter	Lassa entry inh	MARV entry inh	RE007 growth inh	Cruzain inh noDet	NS1 function inh
Cc1cc(NC(=O)Cn2nnc3sc4c(c3c2=O)CCCC4)no1	2%	1.8%	-7%	-42%[14.3 µM]	-6%	2%	-2%	-4%
Cc1nc(-c2ccc(S(=O)(=O)NCC3CCN(C(=O)OC(C)(C)C)CC3)s2)cs1	-1%	/	-14%	/	/	17%	/	-7%
Cc1cc(C)c(-c2csc(NC(=O)/C=C/c3cccs3)n2)c(C)c1	-11%	-6.0%	?	?	?	1%	?	10%
COc1cc(NC(=O)c2ccc(C)cc2)c(OC)cc1NC(=O)CN1CCOCC1	-1%	2.9%	-18%	-18%	-5%	15%	?	-8%
O=C(Cc1c(O)c2ccccc2oc1=O)c1ccc(F)cc1	0%	/	54%[activator]	0%	?	2%	/	/
